StopGo FLuc: FMDV 2A StopGo reporter, firefly signal | Potency, µM (doses to about 57.5 µM), without a hit: top-dose signal change, negative = less light | hit rate 0.23% among 120,000 | HEK cells with a luciferase reporter of 2A StopGo recoding; active = well fitted falling curve with a large enough effect; inconclusive = small, poorly fitted or top-dose-only effect; inactive = no such curve, though single readings can be large or run the other way; also: nearly all actives have a fitted effect of over 60% in size; overnight with compound
2A Renilla: lowers the Renilla signal of an FMDV 2A StopGo reporter; HEK cells with a luciferase reporter of 2A StopGo recoding; Potency, µM (titrated, usually from 57.5 µM), for inactives: at the highest dose signal change, negative = less light; hit rate 0.32% among 120,000; active means well fitted falling curve with a large enough effect; inconclusive means small, poorly fitted or top-dose-only effect; inactive means no such curve, though single readings can be large or run the other way; also: nearly all actives have a fitted effect of over 55% in size; overnight with compound
The depositor's hits bear a star; ? = inconclusive; & = joins results of further samples; [ ] = dose if it differs, or a comment. % is scaled to controls: 0 for no effect and ±100 for the full control effect; potency is read from the fitted curve at half-maximal effect.

SMILES	2A Renilla	StopGo FLuc
CC(=O)c1ccc(NC(=O)COCc2cc(-c3ccc(F)cc3)on2)cc1	-14%	-22%
Cc1c(C(=O)c2cccc(C(F)(F)F)c2)c2ccccn2c1CCC#N	-12%	-11%
Cc1ccc(S(=O)(=O)NCc2nc3nc(C)cc(C)n3n2)cc1	-2%	18%
COc1ccccc1CCNC(=O)c1ccc(NC(=O)CC2SC(N3CCCCC3)=NC2=O)cc1 (stereo not drawn)	32%[activator]	18%
N#CCCN1CCN(c2ccc(C(=O)O)cc2NS(=O)(=O)c2ccc(F)cc2)CC1	-6%	2%
Cc1oc(-c2ccc(C(=O)NCc3cccnc3)cc2)nc1CSc1ccccc1	?	?
CNc1c(NS(=O)(=O)c2ccc(N3CCCC3=O)cc2)c(=O)oc2ccccc12	-5%	-7%
O=C(Nc1cccc(-c2nc3ccccc3o2)c1)c1cc([N+](=O)[O-])ccc1Cl	-9%	1%
COCCNc1nc2c(c(=O)n(Cc3ccccc3F)c(=O)n2C)n1C	-6%	2%
C=CCOc1nc2c(c(=O)n(C)c(=O)n2C)n1Cc1ccc(Cl)cc1	-9%	0%
Cc1ccc(CNC(=O)/C=C/c2ccccc2)o1	0%	88%[activator]
CN1CCOC(CNC(=O)Cc2ccc(F)c(Br)c2)C1 (stereo not drawn)	-4%	14%

New compounds follow.
SMILES	2A Renilla	StopGo FLuc
CC(=O)Oc1ccc2c(=O)c(-c3ccccc3)coc2c1	1%	176%[activator]
O=c1c2ccc(Cl)cc2ncn1Cc1coc(-c2cccs2)n1	4%	15%
CCC(C(=O)Nc1ccc(F)c(Cl)c1)n1nc(-c2ccccc2)ccc1=O (stereo not drawn)	41%[activator]	17%
Cc1ccc(CN(C(=O)c2cc3ccccc3[nH]2)C(C)C)o1	-3%	88%[activator]
CCc1ccccc1Nc1nn2c(=O)c3ccc(C(=O)NCc4ccccc4OC)cc3nc2s1	-6%	12%
COc1cc(NC(=O)COCc2cc(-c3ccc4c(c3)OCO4)on2)cc(OC)c1	-6%	-3%
CC1CCN(c2c(S(=O)(=O)c3ccccc3)cnc3cc4c(cc23)OCCO4)CC1	50%[activator]	11%
CCOC(=O)c1ccccc1NC(=O)Cn1c2ncccc2c(=O)n1-c1ccccc1	-8%	-15%
Cc1ccc(CNC(=O)CN(C)C(=O)c2ccc3c(c2)nnn3C)cc1	-11%	-8%
COc1ccccc1N1CCN(C(=O)Cn2c(=O)n3nc(-c4ccc(C)cc4)nc3c3ccccc32)CC1	-15%	-10%
COc1cccc(N2CC(NC(=O)C3CCCCC3)CC2=O)c1 (stereo not drawn)	8%	-12%
O=C1CCCC(=O)C1CC1C(=O)CCCC1=O	-7%	3%

Remaining list, next part.
SMILES	2A Renilla	StopGo FLuc
COc1ccc(Br)cc1S(=O)(=O)NCCN1CCCCCC1	22%	0%
Clc1ccc(COC(Cn2ccnc2)c2ccc(Cl)cc2Cl)cc1 (stereo not drawn)	-22%	?
Cc1[nH]c2ccc(F)cc2c1CC(=O)NCC(F)(F)F	8%	13%
CSc1ccc(/C=C/C(=O)Nc2ccccc2-c2cccs2)cc1	6%	0%
O=C1Nc2cc(C(=O)N3CCN(c4ccccc4)CC3)ccc2N2CCCCC12 (stereo not drawn)	-7%	1%
CC(C)(CO)NC(=O)c1ccc(Cl)cc1Cl	8%	15%
CCN(C(=O)c1cn(C)c(=O)c2cc(OC)c(OC)cc12)c1cc(C)ccc1C	43%[activator]	-7%
O=C(Cn1c(-c2cccs2)cc2ccccc21)N1CCN(c2ccc(Cl)cc2)CC1	3%	-5%
O=C(/C=C/c1ccccc1O)c1ccc2ccccc2c1	207%[activator]	224%[activator]
CCCCOC(=O)COc1ccc2c(=O)c(Oc3ccc(OC)cc3)c(C(F)(F)F)oc2c1	1%	5%
CCc1ccc(CNC(=O)c2cc(Cl)c(NC(=O)C3=C(C)OCCS3)cc2OC)cc1	41%[activator]	1%
CCOC(=O)c1cc(NC(=O)c2ccc(F)cc2)c(=O)n2c1oc1ccc(Cl)cc12	4%	0%

Continuation:
SMILES	2A Renilla	StopGo FLuc
CCS(=O)(=O)c1nc(S(=O)(=O)c2ccc(Cl)cc2)c(NCc2ccccc2Cl)s1	13%	-13%
O=C(NCCNC(=O)c1cc(-c2ccccc2)nc2ccccc12)c1ccco1	74%[activator]	?
Clc1ccc(-c2ccn[nH]2)cc1	2%	142%[activator]
O=C(/C=C/c1ccc(Cl)cc1Cl)Nc1ccc(-c2ccccc2)cc1	0%	12%
CCOC(=O)c1cc(Cc2ccccc2)sc1NC(=O)c1c(C)noc1C	0%	15%
CCN(CC)S(=O)(=O)c1cc(NC(=O)c2[nH]c(C)c(C(=O)OC)c2C)ccc1C	170%[activator]	64%[activator]
Cc1ccccc1NC(=O)CSc1cn(CC(=O)N2CCCCCC2)c2ccccc12	19%	-5%
ClCc1cccnc1	11%	15%
COc1ccc(CCNC(=O)CCn2c(=O)c3ccccc3n(Cc3cc(C)ccc3C)c2=O)cc1OC	-5%	-2%
CCN(CC)c1cc(C)nc(Nc2ccc(NC(=O)CCCc3ccccc3)cc2)n1	32µM*	?
Cc1oc(-c2ccccc2)nc1CC(=O)N(C)Cc1ccco1	1%	14%
Cc1[nH]c(=O)[nH]c(=O)c1S(=O)(=O)Nc1ccc(F)cc1F	-9%	-5%

Going on with the list.
SMILES	2A Renilla	StopGo FLuc
COc1ccc(CC(=O)NCCc2csc(-c3cccc(C)c3)n2)cc1	24%	-10%
Cc1ccc(C)c(N=C/C(C(=O)C(F)(F)F)=C(\O)c2cccs2)c1	40%[activator]	93%[activator]
COc1ccc(OC)c(CNC(=O)C2CCN(S(=O)(=O)c3cn(C)cn3)CC2)c1	1%	20%
CCOC(=O)/C(C#N)=C\NC(C)=O	41%[activator]	54%[activator]
C/C(=N\NC(=O)c1cccc2ccccc12)c1ccc(C)s1	7%	21%
COc1ccc(C(C)=O)cc1COC(=O)c1c(F)cccc1Cl	66%[activator]	12%
COc1cn(CC(=O)Nc2c(C)cc(C)cc2C)c(CN2CCCCC2)cc1=O	-14%	-20%
Cc1ccc(NC(=O)Cn2c(=O)n(Cc3ccco3)c(=O)c3oc4ccccc4c32)cc1C	-12%	-17%
CCOC(=O)c1cc2n(n1)CC(C)(C(=O)NCCC(C)C)N(CCc1cccs1)C2=O (stereo not drawn)	0%	2%
CC(C)(C)c1ccc(CCC2OCC(CN3CCCCC3)O2)cc1 (stereo not drawn)	-5%	-15%
O=C(Nc1cccc(-c2nc3ccccc3o2)c1)c1ccccc1Br	5%	-1%
Cc1cc(C)cc(NC(=O)CCn2c(=O)n(C)c3ccccc32)c1	16%	49%[activator]

Carrying on.
SMILES	2A Renilla	StopGo FLuc
CCCN(CCC)CCNC(=O)COCc1cc(-c2cccs2)on1	-16%	-11%
N#Cc1ccc(COc2ccccc2C(N)=O)cc1	-18%	29%
Cc1ccc(C)c(N2CCN(S(=O)(=O)c3ccc(-c4cnc(C)o4)cc3)CC2)c1	15%	23%
Cn1nc(C2CC2)c2c(C(F)(F)F)cc(-c3ccc(Cl)c(Cl)c3)nc21	12%	6%
CCOc1ccc(C(=O)Nc2ccc3oc(-c4cccnc4)nc3c2)cc1	-6%&-7%	7%&8%
CCCC(O)(C(N)=O)c1ccccc1 (stereo not drawn)	6%	9%
CC(=O)Nc1cccc(-c2csc(Nc3cccc(O)c3)n2)c1	7%	201%[activator]
O=C(O)C(c1c[nH]c2cc(F)ccc12)N1CCN(Cc2cccc3ccccc23)CC1 (stereo not drawn)	-19%	-17%
CC(=O)N1CCCc2cc(S(=O)(=O)N3CCC(C(=O)NCc4ccccc4)CC3)ccc21	21%	7%
COCc1cc(C)nc2sc3c(c12)NCN(c1ccccc1)C3=O	7%	26%
Cc1ccc2oc(C(=O)Nc3ccnn3Cc3ccc(Cl)cc3)cc(=O)c2c1	22%	8%
COc1cc(NC(=O)C2=C(C)OCCS2)c(Cl)cc1C(=O)NCc1cccc(C)c1	21%	-1%

Quoted at random: 5 entries already listed, in no set order.
SMILES	2A Renilla	StopGo FLuc
CC(C)(C)c1ccc(CCC2OCC(CN3CCCCC3)O2)cc1 (stereo not drawn)	-5%	-15%
CCOC(=O)c1cc2n(n1)CC(C)(C(=O)NCCC(C)C)N(CCc1cccs1)C2=O (stereo not drawn)	0%	2%
CCOC(=O)c1cc(NC(=O)c2ccc(F)cc2)c(=O)n2c1oc1ccc(Cl)cc12	4%	0%
COc1ccccc1CCNC(=O)c1ccc(NC(=O)CC2SC(N3CCCCC3)=NC2=O)cc1 (stereo not drawn)	32%[activator]	18%
O=C1CCCC(=O)C1CC1C(=O)CCCC1=O	-7%	3%

Going on with the list.
SMILES	2A Renilla	StopGo FLuc
O=C(CN1C(=O)COc2ccc(S(=O)(=O)N3CCCCCC3)cc21)N1CCN(c2ccccc2)CC1	0%	-4%
O=C(NCc1cccc(F)c1)c1nc(-c2ccc(Br)o2)no1	32%[activator]	19%
Cc1ccccc1CN(C)C(C)C(=O)NCc1cccs1 (stereo not drawn)	12%	2%
CCc1ccc(NC(=O)c2ccc3c(=O)n4nc(Nc5ccccc5C)sc4nc3c2)cc1	-10%	-2%
CC(NC(=O)CCc1ncc(-c2ccc(Cl)cc2)o1)c1ccc2c(c1)NC(=O)CO2 (stereo not drawn)	0%	49%[activator]
Cc1cccc(C(=O)Nc2ccc(C(=O)OCc3cc(=O)n4c5c(sc4n3)CCCC5)cc2)c1	-4%	10%
CSc1ccc(/C=N/Nc2ccc(F)cc2)cc1	11%	0%
CC(C)c1ccccc1NC(=O)/C=C/c1ccc(F)cc1	-4%[1.06 µM]	?
Cn1cnc2c1c(=O)n(CC(=O)NCc1ccccc1OC(F)F)c(=O)n2C	-1%	63%[activator]
COc1cccc(CC(=O)N2CCN(CC(=O)NC(N)=O)CC2)c1	-7%	-3%
CCOc1cc(N)c(Br)cc1OCC	-6%	0%
COC(=O)C1=C(C(=O)OC)SC(=C(Cl)C(=S)Sc2ccccc2)S1	7%	0%

Other entries follow:
SMILES	2A Renilla	StopGo FLuc
CCc1cccc(NC(=O)c2c(N3CCCC3=O)c3cc(C)ccc3n2C)c1	6%	8%
COc1ccc(NC(=O)CCn2nc(-c3ccc(C)cc3)c3ccccc3c2=O)cc1C(N)=O	4%	-1%
COC(=O)c1cc(Cl)ccc1NS(=O)(=O)C(F)(F)F	-6%	3%[11.5 µM]
Cc1ccc(-n2c(SCC(=O)Nc3c(C)cccc3C)nc(O)c(C)c2=O)cc1	0%	18%
CC(COc1cc(F)cc(F)c1)CN1CCC(C(O)(c2ccccc2)c2ccccc2)CC1 (stereo not drawn)	5%	-8%
CC(=O)c1ccc(NC(=O)CC2Oc3ccc(C)cc3NC2=O)cc1 (stereo not drawn)	18%	17%
COc1cc(C(C)=O)ccc1OCc1c(F)cccc1Cl	23%	63%[activator]
CCc1cc2c(cc3c(=O)n(CC(=O)NC(C)c4ccccc4)ncn32)s1 (stereo not drawn)	-10%	0%
O=C(OCCOc1ccccc1F)c1n[nH]c(=O)c2ccccc12	5%	61%[activator]
Cc1ccc(Nc2c(-c3ccc(N4CCOCC4)cc3)nc3c(C)cccn23)cc1	-14%	-22%
CC1C(c2cccs2)=[N+]([O-])C(C)(c2ccc(Cl)cc2)N1O (stereo not drawn)	7%[1.06 µM]	0%
O=C(CCn1ccc2cc(S(=O)(=O)N3CCCCC3)ccc21)N1CCOCC1	42%[activator]	2%

(further entries)
SMILES	2A Renilla	StopGo FLuc
Cc1ccc2nc(CSc3nnc(N4CCCCC4)n3-c3ccccc3)cn2c1	-9%	-4%
COc1ccccc1NC(=O)N1CCC(Cc2ccccc2)CC1	7%	0%
CCCNc1c(NS(=O)(=O)c2ccc3[nH]c(=O)oc3c2)c(=O)oc2ccccc12	16%	9%
CCN(CC)CCCNC(=O)C1CCN(S(=O)(=O)CC)CC1	-8%	-8%
COc1nc(N2CCCC2)nc(-n2nnc(C(C)=O)c2C)n1	-4%	0%
Cc1onc(-c2ccccc2Cl)c1C(=O)N1CCN(S(=O)(=O)c2ccc3c(c2)CCC3)CC1	-14%	-5%
O=C(C(=O)N1CCN(C(=O)c2cc3ccccc3[nH]2)CC1)N1CCCC1	-4%	-5%
O=C(NC1CCCC1)c1ccc2c(c1)-c1ccccc1C2	23%	159%[activator]
CC(C)Cc1nn2c(=O)cc(COC(=O)c3cccc(NC(=O)c4cccs4)c3)nc2s1	-8%	-9%
CC(C)(C)c1ccc(C(=O)Nc2ccccc2F)cc1	12%	22%
O=C/C=C/c1cccc([N+](=O)[O-])c1	53%[activator]	30%[activator]
Cc1ccc(NC(=O)c2cc(=O)c3ccc(C)c(C)c3o2)cc1C	0%	-15%

(listing goes on)
SMILES	2A Renilla	StopGo FLuc
CCOc1ccccc1OCCOc1ccc(Cl)c(CC)c1	15%	22%
COc1cc2c(cc1OC)C(COc1ccccc1OC)N(C(=O)c1ccccc1OC)CC2 (stereo not drawn)	-25%	0%
COc1ccccc1CNC(=O)c1cc(=O)[nH]c2ccccc12	10%	9%
COc1cc(/C=C(\C#N)c2ccccc2)c(Br)cc1OCc1ccccc1Cl	4%	-2%
Cc1[nH]c2ccc(C(=O)NCCCN3CCCCC3)cc2c1C	-7%	-6%
Cc1ccc(CN(C)C(C)C(=O)N(C)CC(=O)Nc2ccccc2C(F)(F)F)cc1 (stereo not drawn)	-2%	17%
Cc1cc(C)nc(Nc2nc(C)c3cccc(C)c3n2)n1	5%	23%
O=C(NC(=S)NNC(=O)[C@H]1C[C@@H]1c1ccccc1)c1ccc(-c2ccccc2)cc1	-8%	256%[activator]
CCOc1ccc(S(=O)(=O)N(CC(=O)NCCc2ccc(OC)c(OC)c2)c2ccccc2)cc1	-6%	-15%
